High-throughput results as filed in PubChem BioAssay.
Yeast UUG start: modulators of yeast start codon fidelity, primary screen, whole organism, S. cerevisiae, single point, plate reader; activity score, % at 18.7 µM; S. cerevisiae UUG-firefly luciferase reporter, luminescence/redox ratio; hit rate 0.13% among 350,000;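 active = replicate mean at a twofold rise or more, about +100% in these data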;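 also: firefly luciferase made from a UUG start codon reports start codon fidelity; reporter light over untreated wells divided by growth signal over untreated wells; some hits fall short of that in this replicate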
MT1-MMP act inh: blockers of MT1-MMP proenzyme processing, primary screen, HT1080 RFP-PRO-GFP cells, GFP/RFP fluorescence; GFP/RFP ratio change, % at 20 µM; hit rate 0.061% among 360,000; GFP/RFP ratio fluorescence, overnight; percent of plate control window, DMSO zero; Matrix metalloproteinase-14 (Homo sapiens), P50281; AID 651647, 2012;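 active = GFP/RFP ratio change of at least 30% with cell ATP level not reduced by more than half and red fluorescence within 50% of control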; also: strong numbers were not always called active
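Material – HT1080 RFP-PRO-GFP cells · Control set – DMSO wells and RFP-L50D-GFP cells · Incubation – overnight cell settling, then overnight compound exposure, 37 °C, 5% CO2 · Compound dosing – single-point 20 µM compound, 1% DMSO · Read-out – GFP/RFP fluorescence ratio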
eIF4H FP inh: human eIF4H binding inhibitors, primary screen, translation initiation inhibitor project, biochemical, uHTS, fluorescence polarization; hit rate 0.94% among 290,000; eIF4H fluorescence polarization binding assay; inhibition, % at 35 µM; Eukaryotic translation initiation factor 4H (Homo sapiens), Q15056;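 active = 50% or more with normal probe brightness, or confirmed in later tests; inconclusive = above 50% with abnormal brightness, or retests that disagree; inactive = below 50% or failed in later tests; about a fifth of its hits are not listed in these tables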;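 also: calls also rest on retests at 20 µM and on dose response follow-up; 0% = protein and probe with vehicle and 100% = probe without protein; strong numbers were not always called active; many hits fall short of the cut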
CSC inhib: cancer stem cell viability inhibitors, primary screen, luminescence; hit rate 1.1% among 300,000; inhibition, % at 7.5 µM; cancer stem cell-like cells viability;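 active = mean at 75% or more and at least half the replicates too; inconclusive = mean and replicates disagree; tested in HMLE shEcad cells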;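 also: 0% = median of negative and 100% = median of positive control wells; the first replicate is given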
HIV Env fusion: inhibitors of HIV-1 Env-driven cell-cell fusion, primary screen, HeLa-JRFL effector, CEM21 target cells, luciferase; hit rate 1.1% among 360,000; inhibition, % at 12.3 µM; AID 651610, 2012;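 active = mean replicate inhibition score of at least 50 and every replicate individually at or above 50; inconclusive = only one of the two criteria met; inactive = mean below 50 and not all replicates reaching 50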;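 also: 0% = plate neutral controls and 100% = maraviroc near 300 nM; one replicate is shown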
PABP FP inh: PABP poly(A) RNA binding inhibitors, primary screen, biochemical, fluorescence polarization, uHTS; inhibition, % at 35 µM; hit rate 1% among 290,000; AID 2014, 2009;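 active = 50% or more with normal probe brightness, or confirmed in later tests; inconclusive = above 50% with abnormal brightness, or retests that disagree; inactive = below 50% or failed in later tests; about a fifth of its hits are not listed in these tables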;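 also: calls also rest on retests at 20 µM and on dose response follow-up; controls were probe without protein and protein plus probe with vehicle; some compounds called inactive have numbers as strong as hits; many hits fall short of the cut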
Target sequence (P11940 whole entry, looked up): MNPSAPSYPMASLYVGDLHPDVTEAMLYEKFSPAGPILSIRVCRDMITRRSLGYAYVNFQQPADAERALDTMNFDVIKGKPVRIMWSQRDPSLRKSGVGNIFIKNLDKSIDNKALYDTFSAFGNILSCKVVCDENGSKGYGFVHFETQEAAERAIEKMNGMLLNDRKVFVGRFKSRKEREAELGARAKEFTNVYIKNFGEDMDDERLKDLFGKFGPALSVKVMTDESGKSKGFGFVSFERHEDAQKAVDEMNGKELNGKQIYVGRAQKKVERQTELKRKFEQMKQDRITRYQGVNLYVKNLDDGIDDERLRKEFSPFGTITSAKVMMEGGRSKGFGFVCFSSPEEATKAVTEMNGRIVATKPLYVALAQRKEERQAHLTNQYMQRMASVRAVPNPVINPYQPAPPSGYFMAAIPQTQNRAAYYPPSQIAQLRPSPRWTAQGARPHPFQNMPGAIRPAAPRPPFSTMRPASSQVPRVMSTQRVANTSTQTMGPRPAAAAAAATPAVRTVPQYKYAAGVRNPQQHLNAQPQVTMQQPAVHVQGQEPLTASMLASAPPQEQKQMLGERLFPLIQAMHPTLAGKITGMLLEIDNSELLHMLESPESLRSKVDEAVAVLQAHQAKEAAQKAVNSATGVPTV
Rce1 inhib: yeast Rce1p protease inhibitors, primary screen, biochemical, fluorescence, cell-free homogeneous. calls only. hit rate 0.27% among 290,000. yeast membranes, quenched prenylated peptide cleavage fluorescence. CAAX prenyl protease 2 (Saccharomyces cerevisiae (strain ATCC 204508 / S288c)), Q03530;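 active = fall in fluorescence gain of 50% or more versus controls, with final raw signal at or below 3038400; inconclusive = same 50% fall but final raw signal above 3038400; inactive = fall in fluorescence gain under 50%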;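 also: plate controls were neutral control wells for no effect and wells lacking membranes for full effect; tested at 10 µM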
Target sequence (Q03530 whole entry, looked up): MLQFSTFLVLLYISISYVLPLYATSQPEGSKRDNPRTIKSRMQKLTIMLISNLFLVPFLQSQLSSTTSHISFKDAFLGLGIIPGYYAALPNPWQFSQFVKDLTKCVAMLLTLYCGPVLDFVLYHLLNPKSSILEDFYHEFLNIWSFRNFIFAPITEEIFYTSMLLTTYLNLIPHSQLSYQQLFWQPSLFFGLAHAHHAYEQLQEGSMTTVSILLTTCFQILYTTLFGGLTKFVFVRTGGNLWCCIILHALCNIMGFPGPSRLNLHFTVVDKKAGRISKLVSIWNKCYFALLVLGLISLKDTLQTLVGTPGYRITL
MT1-MMP act inh RFP: further read-out of MT1-MMP act inh, marked with its call; RFP signal change, %; measured here: RFP expression control read;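 0 = vehicle wells; hits needed this value within 50% of zero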
* = called active by the depositor; i = inactive; ? = inconclusive; nt = not tested or not shown; & = joins results of further samples; [ ] = remark or other dose. Compounds as they come; overall some 2.9% were active at least once.

Sample of the layout, 5 compounds:
no.	canonical_smiles	Yeast UUG start	MT1-MMP act inh	MT1-MMP act inh RFP	eIF4H FP inh	CSC inhib	HIV Env fusion	PABP FP inh	Rce1 inhib
1	CCC(C)c1ccccc1NC(=O)COC(=O)c1ccc2c(c1)S(=O)(=O)c1ccccc1C2=O (configuration not stated)	nt	-1	2	-6	-14	-45	2	i
2	CCC(=O)N1CCCC(C(=O)Nc2nc3ccccc3n2C)CC1 (configuration not stated)	-5	2	3	nt	nt	-33	nt	nt
3	COc1ccc(CC(=O)N/N=C/c2cccnc2)cc1OC	-25	3	-1	6	-15	-302	0	i
4	CC(C)CNC(=O)c1cccc(Cn2cc(Cl)cn2)c1	0	-3	-1	-5	-3	nt	1	i
5	Cc1ncc(C(O)c2ccc(N(C)C)cc2)n1Cc1ccccc1 (configuration not stated)	4	9	0	nt	nt	-3	nt	nt

This part in full (from the top)
no.	canonical_smiles	Yeast UUG start	MT1-MMP act inh	MT1-MMP act inh RFP	eIF4H FP inh	CSC inhib	HIV Env fusion	PABP FP inh	Rce1 inhib
1	CCC(C)c1ccccc1NC(=O)COC(=O)c1ccc2c(c1)S(=O)(=O)c1ccccc1C2=O (configuration not stated)	nt	-1	2	-6	-14	-45	2	i
2	CCC(=O)N1CCCC(C(=O)Nc2nc3ccccc3n2C)CC1 (configuration not stated)	-5	2	3	nt	nt	-33	nt	nt
3	COc1ccc(CC(=O)N/N=C/c2cccnc2)cc1OC	-25	3	-1	6	-15	-302	0	i
4	CC(C)CNC(=O)c1cccc(Cn2cc(Cl)cn2)c1	0	-3	-1	-5	-3	nt	1	i
5	Cc1ncc(C(O)c2ccc(N(C)C)cc2)n1Cc1ccccc1 (configuration not stated)	4	9	0	nt	nt	-3	nt	nt
6	CCN(CC(=O)Nc1c(F)cccc1F)C(=O)CCc1nc2cc(S(=O)(=O)N(C)C)ccc2n1CC	-5	-7	-4	-18	-2	nt	-1	i
7	CCOc1ccc(C(=O)COC(=O)c2ccc(-n3cnnn3)cc2)cc1	4	-1	2	-4	nt	-9	-8	i
8	Cc1ccc(NS(=O)(=O)c2ccc(NC(=O)[C@@H]3CCCC[C@@H]3C(=O)O)cc2)c(C)c1	3	3	1	5	0	nt	-6	i
9	CN[C@@H](CO)C(=O)NC[C@H]1O[C@@H](n2cnc3c(N)ncnc32)[C@H](O)[C@@H]1O	-13	0	5	nt	nt	10	nt	nt
10	CN1c2ccccc2C(C)(C)C12C=Cc1cc(O)ccc1O2 (configuration not stated)	-10	63	84	30	62	nt	21	i

Part of the list above, as labelled records:
#6 CCN(CC(=O)Nc1c(F)cccc1F)C(=O)CCc1nc2cc(S(=O)(=O)N(C)C)ccc2n1CC
  Yeast UUG start: -5
  MT1-MMP act inh: -7
  MT1-MMP act inh RFP: -4
  eIF4H FP inh: -18
  CSC inhib: -2
  HIV Env fusion: nt
  PABP FP inh: -1
  Rce1 inhib: i

#3 COc1ccc(CC(=O)N/N=C/c2cccnc2)cc1OC
  Yeast UUG start: -25
  MT1-MMP act inh: 3
  MT1-MMP act inh RFP: -1
  eIF4H FP inh: 6
  CSC inhib: -15
  HIV Env fusion: -302
  PABP FP inh: 0
  Rce1 inhib: i

Other structures follow.
no.	canonical_smiles	Yeast UUG start	MT1-MMP act inh	MT1-MMP act inh RFP	eIF4H FP inh	CSC inhib	HIV Env fusion	PABP FP inh	Rce1 inhib
11	CCc1ccc(CN2CCC(n3nccc3NC(=O)C3CCCC3)CC2)cc1	-13	7	-3	-2	1	nt	1	i
12	CC(=O)NS(=O)(=O)c1ccc(NC(=O)CCc2ccccc2)cc1	-3	1	3	7	-11	-5	4	i
13	Cc1c(C(C)(C)C)c(C=S)n2ccccc12	-8	-17	-1	77*	-3	-52	111*	i
14	C[C@@H]1CN([C@H](C)CO)C(=O)Cc2cc(NS(=O)(=O)c3ccc(F)cc3)ccc2O[C@H]1CN(C)Cc1ccc(C(=O)O)cc1	-14&-10	4	3	nt	nt	-13[16.7 µM]	nt	nt
15	CCOc1cc(/C=N/Nc2nc3ccccc3[nH]2)cc(Br)c1OCC(=O)N(C)C	-15	6	-9	10	16	18	-12	i
16	CC1CC(C)CN(S(=O)(=O)N2CCCC(C(=O)NC3CCCCC3C)C2)C1 (configuration not stated)	-12	-1	-7	nt	-9	18	nt	i
17	COc1ccc(NC(=O)C2C(=O)N(CCO)C3(C)CC2c2ccccc2O3)cc1 (configuration not stated)	27&1	-5	0	1	nt	nt	-3	i
18	Cc1ccc2c(CN(C)Cc3ccccc3)cc(=O)oc2c1C	-7	2	1	-7	6	6	-1	i
19	CCCCC(=O)Nc1nnc(S(=O)(=O)N(CC)c2ccccc2)s1	-5	0	-1	-14	-6	-1	2	i
20	Cc1oc2c(C)c3oc(=O)c(CC(=O)N[C@@H](CCCNC(N)=O)C(=O)O)c(C)c3cc2c1C	17	8	3	-5	2	-2	2	i
21	CC(=O)c1ccc(N2CCN(C(=O)CN3C(=O)NC4(CCCCC4)C3=O)CC2)c(F)c1	-7	0	1	nt	-6	-3	nt	nt
22	Cc1ccc(S(=O)(=O)N2CCOC23CCN(C(=O)C(=O)NCc2ccccc2)CC3)cc1	-1	-2	-1	nt	1	?	nt	i
23	Cc1noc(C)c1S(=O)(=O)Nc1ccc(C(=O)N2CCN(c3ccc(F)cc3)CC2)cc1	nt	3	-3	-10	-6	14	-1	i
24	C=CC[C@@H](CC(=O)N[C@H](CO)Cc1ccccc1)C(=O)NC[C@@H](OC(=O)[C@@H](CC=C)Cc1ccc(F)cc1)c1ccccc1	-12	-2	-6	nt	-4	4	nt	nt
25	CN1C[C@@H]2[C@@H]3C(=O)N(C)C(=O)[C@@H]3[C@](C)(C1=O)N2C(=O)c1ccc(C(C)(C)C)cc1	0	0	3	nt	nt	2	nt	nt
26	CCN1CCN(CCCNC(=O)CCC(=O)N2CCOc3ccccc32)CC1	-1	-4	1	8	-7	1	2	i
27	CC(C)Cc1ccc(C(=O)NCc2ccc3c(c2)OCO3)o1	-3	3	0	5	-14	21	-4	i
28	COC(=O)C1=C(C)N(CCc2c[nH]c3ccccc23)C(=O)/C1=C\N(C)C	nt	-16	5	-5	nt	6	3	i
29	COc1ccc(-c2cc(C(F)(F)F)nc(N3CCN(C)CC3)n2)cc1OC	-12	-24	-7	-8	-19	-65	0	i
30	O=S(=O)(Nc1ccc2c(c1)OCCO2)c1ccc(F)c(F)c1	-10	0	-5	-7	nt	11	7	i
31	COc1ccc(-c2ccc(SCC(=O)c3ccccc3)nn2)cc1OC	-19	0	-2	-2	3	-9	3	i
32	CCOC(=O)c1cnc(SCc2cccc(C)c2)nc1N	-3	4	4	-8	15	-80	2	i
33	CCN(CC)S(=O)(=O)N1CCC(C(=O)NCc2ccco2)CC1	nt	-1	6	3	-6	-9	5	i
34	O=C(O)C1CSC(c2ccncc2)N1 (configuration not stated)	-25	-1	6	0	-9	nt	3	i
35	CCCCN(CCCC)C(=O)CSc1nnc2n(C)c(=O)c3c4c(sc3n12)CCCC4	3	0	1	-10	nt	nt	-2	nt
36	O=C1c2ccccc2C(=O)c2c1ccc(C(=O)N1CCCCC1)c2NCCO	1	23	7	5	13	nt	10	i
37	Cc1cc(C)cc(OCCNC(=O)C(C)N2C(=O)c3ccccc3C2=O)c1 (configuration not stated)	18	0	2	8	nt	-7	-11	i
38	O=C(COC(=O)CCC1CCCC1)Nc1ccccc1Br	-9	2	2	nt	6	nt	nt	nt
39	CCCn1nc(C(=O)Nc2cccc(S(=O)(=O)N3CCOCC3)c2)c2ccccc2c1=O	2	3	3	nt	nt	-11	nt	nt
40	Cc1nn(C)c(C)c1S(=O)(=O)N(CC(=O)NCc1ccco1)c1ccc(C(C)C)cc1	nt	nt	nt	-1	-6	nt	2	i
41	C[C@H](OC(=O)c1[nH]cnc1C(=O)N1CCN(C(=O)OC(C)(C)C)CC1)c1ccccc1	5	0	-7	nt	nt	0	nt	nt
42	CCOC(=O)C1CCCN(C(=O)Cn2nc(C)n3c(cc4c(OC)cccc43)c2=O)C1 (configuration not stated)	-6	0	0	-14	-7	8	9	i
43	COc1ccc(-c2[nH]ncc2CN2CCCC2c2nonc2C)c(F)c1 (configuration not stated)	-14	-6	-1	2	-8	1	2	i
44	COc1ccc(/C=N\NC(=O)c2ccc([N+](=O)[O-])cc2)cc1COc1c(F)c(F)cc(F)c1F	-8	8	-2	0	5	43	-19	i
45	Cc1noc(C)c1C(=O)NCc1ccccc1Br	-21	4	4	-13	nt	0	-10	i
46	N=c1n(CCN2CCCCC2)c2ccccc2n1CC(O)c1cccc(Br)c1 (configuration not stated)	-10	-7	-10	-9	22	nt	2	i
47	CCCNC(=O)c1ccc2c(=O)c(O)c(C)[nH]c2c1	9	3	4	36	-5	-12	28	i
48	COC(=O)C1CCN(C(=O)COC(=O)C2CCN(S(=O)(=O)c3c(Cl)cccc3Cl)CC2)CC1	4	1	6	nt	-13	-13	nt	i
49	O=C(Cc1ccc([N+](=O)[O-])cc1)Nc1ccc(Br)cn1	-8	0	-7	5	-12	6	15	i
50	CC(=O)Nc1ccc(C(=O)N/N=C/c2ccc(F)cc2)cc1	nt	5	7	-8	19	1	4	i
51	CCN1CCN(c2nc3sc4c(c3c3ncnn23)CC(C)CC4)CC1 (configuration not stated)	4	-4	-4	-8	48	nt	3	i
52	Cc1cc2cc(OCc3ccccc3)ccc2n1C	-12	-7	-2	5	-16	-70	-6	i
53	COc1cc(/C=C2\C(=O)NN(c3ccccc3)C2=O)ccc1OCC(N)=O	nt	nt	nt	-4	11	-21	2	i
54	O=C(NCCc1ccccc1)C1COc2ccccc2O1 (configuration not stated)	-6	-1	0	-7	-15	4	-3	i
55	O=C(Nc1ccc2nc3n(c(=O)c2c1)CCCCC3)C(=O)N1CCN(c2ccccc2)CC1	-13	-2	-9	-5	35	6	8	i
56	c1ccc(-c2nc3ccccc3c3nncn23)cc1	-21	8	3	-7	-4	nt	0	i
57	CCc1ccccc1OCC(=O)Nc1cccc(S(=O)(=O)NC2=NCCCCC2)c1	41	6	-4	nt	nt	-5	nt	nt

As entered above:
Under MT1-MMP act inh, entry 54 is entered as -1
Under PABP FP inh, entry 52 is entered as -6
